Compound activity as filed in PubChem.
A647 autofl = compound autofluorescence in A647 spectral region | Compound fluorescence, A647 channel (570/671 nm), Tris buffer | max dye-equivalent concentration, M | 59,000 tested, under 10 active; active means above 1 µM dye equivalent; inconclusive means 0.1 to 1 µM; inactive means 0.1 µM or less;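 also: values scaled relative to a standard on each plate; highest value over a series up to 38 µM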
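Fluorescence read (570 nm ex, 671 nm em) after 15 min RT incubation of compounds in 100 mM Tris buffer, pH 8.0; values expressed as dye-equivalent concentration against a six-point A647 standard series on each plate.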
TSHR agonist = TSH receptor (human) agonism. HEK293-CNG-TSHR cells (CNG channel as cAMP sensor), membrane potential dye, cAMP. Potency, µM (highest dose often 57.1 µM), for inactives: at the top dose activation, usual class: activators. 0.48% of 73,000 active. AID 926; active = well fitted activation curve of enough size with the parental cells flat; inconclusive = any curve in the parental cells; inactive = parental cells flat and receptor cells flat or falling; also: potency is read from the fitted curve at half-maximal effect; % of control where 0% means no effect; weak receptor curves with flat parental cells got no call and are not listed
Target sequence (P16473 whole entry, looked up): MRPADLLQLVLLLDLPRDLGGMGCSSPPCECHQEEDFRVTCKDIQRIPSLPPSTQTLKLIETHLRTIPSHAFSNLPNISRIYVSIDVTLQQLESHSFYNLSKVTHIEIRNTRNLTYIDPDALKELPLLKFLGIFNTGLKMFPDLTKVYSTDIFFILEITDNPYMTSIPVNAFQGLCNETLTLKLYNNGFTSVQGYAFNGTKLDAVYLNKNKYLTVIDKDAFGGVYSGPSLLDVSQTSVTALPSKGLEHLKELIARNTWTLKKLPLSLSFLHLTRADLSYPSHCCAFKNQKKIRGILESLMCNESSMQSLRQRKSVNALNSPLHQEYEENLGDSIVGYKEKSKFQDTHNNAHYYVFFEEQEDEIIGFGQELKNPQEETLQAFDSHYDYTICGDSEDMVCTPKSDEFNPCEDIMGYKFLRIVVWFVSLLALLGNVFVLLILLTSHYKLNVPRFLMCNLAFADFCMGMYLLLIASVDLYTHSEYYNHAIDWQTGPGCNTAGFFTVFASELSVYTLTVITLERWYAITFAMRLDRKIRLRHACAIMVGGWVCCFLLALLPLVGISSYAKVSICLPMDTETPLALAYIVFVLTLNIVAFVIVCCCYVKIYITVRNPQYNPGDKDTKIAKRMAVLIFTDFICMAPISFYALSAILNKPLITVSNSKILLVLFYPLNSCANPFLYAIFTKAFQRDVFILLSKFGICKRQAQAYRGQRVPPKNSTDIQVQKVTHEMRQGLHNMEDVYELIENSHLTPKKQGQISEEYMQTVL
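HEK 293 cells stably expressing TSHR and a modified CNG channel, with CNG-only parental cells as counterscreen, were preloaded 60 min at room temperature with membrane potential dye containing 100 uM RO 20-1724. Compound exposure was 30 min, and depolarization was read as fluorescence at 590 nm.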
A488 fluor = compound autofluorescence in A488 spectral region | compound autofluorescence, A488 spectral region, dye equivalency; active compounds read high | max dye equivalency, M | 0.1% of 59,000 active | AID 591; active = above 10 nM dye equivalent; inconclusive = 1 to 10 nM; inactive = 1 nM or less; about half of its hits are not listed in these tables;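 also: highest value over a series up to 38 µM; compound alone in buffer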
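Intrinsic compound fluorescence is measured in 100 mM Tris buffer at pH 8.0 following 15 min incubation at room temperature. Intensities at 480 nm excitation/540 nm emission are calibrated to an on-plate A488 concentration series, giving dye-equivalent concentrations.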
AID923 = qHTS Assay for Allosteric/Competitive Inhibitors of Caspase-1: Spectroscopic Profiling in AFC Spectral Region. compound fluorescence, AFC spectral region (405/520 nm); almost no hit is shown here. Potency, µM (series often up to 57.5 µM), for the others: at the top dose fluorescence increase, usual class: activators. 1.1% of 75,000 active. AID 923, 2007; active = well fitted activation curve with a large enough effect; inconclusive = small, poorly fitted or top-dose-only effect;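 also: potency is read from the fitted curve at half-maximal effect; 0% is about no effect; scaled to a free AFC standard on each plate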
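Compound autofluorescence profiled at 405 nm ex/520 nm em during kinetic caspase 1 run (50 nM enzyme, 5 uM Ac-WEHD-AFC, HEPES pH 7.5, 10 mM DTT). Titration up to 57 uM; baseline from regression intercept, normalized to AFC standard curve.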
Resorufin autofl = compounds fluorescent in resorufin spectral region; Compound fluorescence, resorufin region 547/598 nm, buffer; active compounds read high; max dye-equivalent concentration, M; 0.04% of 59,000 active; AID 588; active = above 10 nM dye equivalent; inconclusive = 1 to 10 nM; inactive = 1 nM or less; a few of its hits are not listed in these tables; also: highest value over a series up to 38 µM
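Tris 100 mM pH 8.0; compound added, 15 min RT; CCD imager read, ex 547 nm/em 598 nm; signal normalized to resorufin standard curve (six concentrations per plate) as dye-equivalent concentration.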
* hit, by the source's call; i = inactive; ? = inconclusive; / = not tested or not shown; & = joins results of further samples; [ ] = another dose, or the depositor's remark. This is a subset; the hit share may differ from the screen's.

The opening 5 entries (preview)
SMILES	A647 autofl	TSHR agonist	A488 fluor	AID923	Resorufin autofl
O=C(CSc1nc(-c2ccco2)cc(C(F)(F)F)n1)N1CCc2ccccc2C1	1.8e-08	?	i	1.4%	i
O=C(COC(=O)CNS(=O)(=O)/C=C/c1ccccc1)NC1CCS(=O)(=O)C1 (configuration not stated)	3.7e-09	-4%	i	-1.9%	i
CC(CCc1nc2ccccc2s1)(c1ccc(O)cc1)c1ccc(O)cc1	1.7e-08	-3%[11.4 µM]	i	-2.2%[11.5 µM]	i
Nn1c(SCC(=O)Nc2ccc(F)cc2)nnc1-c1cccnc1	2.9e-09	1%	i	-1.6%	i
O=S(=O)(NCCc1ccccc1)c1cccc(S(=O)(=O)N2CCOCC2)c1	8.5e-09	4%	i	-1.4%	i

The listing, repeating the preview:
SMILES	A647 autofl	TSHR agonist	A488 fluor	AID923	Resorufin autofl
O=C(CSc1nc(-c2ccco2)cc(C(F)(F)F)n1)N1CCc2ccccc2C1	1.8e-08	?	i	1.4%	i
O=C(COC(=O)CNS(=O)(=O)/C=C/c1ccccc1)NC1CCS(=O)(=O)C1 (configuration not stated)	3.7e-09	-4%	i	-1.9%	i
CC(CCc1nc2ccccc2s1)(c1ccc(O)cc1)c1ccc(O)cc1	1.7e-08	-3%[11.4 µM]	i	-2.2%[11.5 µM]	i
Nn1c(SCC(=O)Nc2ccc(F)cc2)nnc1-c1cccnc1	2.9e-09	1%	i	-1.6%	i
O=S(=O)(NCCc1ccccc1)c1cccc(S(=O)(=O)N2CCOCC2)c1	8.5e-09	4%	i	-1.4%	i
Cc1ccc(CNC(=O)CN2CCN(Cc3ccc(C)cc3)C2=O)cc1	1.2e-09	-2%	i	-1.1%	i
COc1cccc2c(=O)c(SC(F)(F)C(F)C(F)(F)F)c(C)[nH]c12 (configuration not stated)	1e-09	/	i	/	i
COc1ccc2[nH]c(=O)c(CN(CCc3ccccc3)Cc3nnnn3CC3CCCO3)cc2c1 (configuration not stated)	1e-09	10%	i	19%	i
O=C(Cc1cccs1)N1CCC(c2nc3c(nnn3Cc3ccccc3)c(=O)[nH]2)CC1	7.3e-09	1%	i	0.6%	i
CCOC(=O)N1CCN(C(=O)C2CCN(S(C)(=O)=O)CC2)CC1	4.5e-08	-2%	i	1.0%	i
CC(=O)Nc1nnc(SCC(=O)NC(C)(C)C)s1	/	-4%	/	-1.2%	/
CC(C)C1N=C2c3ccccc3N=C(SCC(=O)NCCc3ccc(S(N)(=O)=O)cc3)N2C1=O (configuration not stated)	1.6e-08	6%	i	2.1%	i
CC(C)C(NC(=O)C12CC3CC(CC(C3)C1)C2)C(=O)O (configuration not stated)	1e-09	0%	i	-1.3%	i
O=C(NC12CC3CC(CC(C3)C1)C2)c1ccccc1O	2.1e-08	?	i	-0.4%	i
COc1ccc(C(=O)NC2CCN(S(=O)(=O)Cc3ccccc3)CC2)c(OC)c1	1e-09	?	i	0.3%	i
O=C(CSc1nc2ccccc2nc1SCC(=O)N1CCCCC1)N1CCCCC1	/	25µM*	/	-1.7%	/
Cc1[nH]c2c(C)ccc(C)c2c1CC(=O)O	1e-09	13%[11.4 µM]	i	1.6%[11.5 µM]	i
COC(=O)[C@@H](NC(=O)c1cc(-c2ccccc2)nc2ccccc12)c1ccccc1	9.2e-09	?	i	/	i
COc1nc(-c2ccccc2)ccc1-c1noc(-c2ccco2)n1	5.6e-09	4%	i	1.6%	i
CC(C)CCOc1ccc(C(=O)CCNC(C)C(=O)O)cc1 (configuration not stated)	1.4e-09	/	i	3.3%	i
CCOc1ccc(CCN2C(=O)C3C4C=CC(C4)C3C2=O)cc1OCC (configuration not stated)	/	19%	/	0.9%	/
CN(C)C(=O)c1ccc(-c2ccc3ncnc(Nc4ccccc4)c3c2)cc1	1e-09	4%	i	1.7%	i
CCOc1ccc(C(C)=O)cc1Cn1nc(C(=O)O)c2ccccc2c1=O	1e-09	26%	i	-1.9%	i
O=S(=O)(c1ccc2ccccc2c1)N(CC(O)CN1CCOCC1)c1ccccc1 (configuration not stated)	1e-09	/	i	/	i
O=C(Nc1ccc2c(c1)CCC2)C1COc2ccccc2O1 (configuration not stated)	1e-09	?	i	-2.5%	i
CC(C(=O)O)c1cccc(C(=O)c2ccccc2)c1 (configuration not stated)	1e-09	7%	i	1.2%&4.9%	i
Cc1ccc(-c2[nH]nc3c2C(c2ccc(OC(=O)N4CCOCC4)cc2)C(C#N)=C(N)O3)cc1 (configuration not stated)	3e-08	27%	i	1.7%	i
CC(NC(=O)c1ccccc1)(C(=O)O)C(=O)O	2.2e-09	-8%[11.4 µM]	i	-1.6%[11.5 µM]	i
CC(=O)N1CCc2cc(C(=O)CN3CCN(c4cccc(Cl)c4)CC3)ccc21	/	?	/	0.4%	/
COc1ccc(S(=O)(=O)NCCN2CCOCC2)c2ccccc12	/	12%[11.4 µM]	/	2.2%	/
CCCC(=O)Nc1ccc2c(c1)C(=O)N(CCC(=O)O)C2=O	2.5e-09	-1%	i	5.1%	i
Cc1ccccc1CS(=O)(=O)Cc1ccc(C(=O)N2CCOCC2)o1	4.3e-08	27%	i	0.0%	i
CC1CCCCC1NC(=O)c1cn(C)c2ccc(S(=O)(=O)N3CCCC3)cc2c1=O (configuration not stated)	9e-09	-6%[11.4 µM]	i	-2.4%	i
CC(C)[C@@H](OCc1ccccc1)[C@H](C)/C=N\OC[C@@H](O)[C@@H]1O[C@@H]2OC(C)(C)O[C@@H]2[C@H]1O	/	-1%[11.4 µM]	/	-4.4%[11.5 µM]	/
COC(=O)/C(C#N)=C1/SC=C(C)N1c1ccccc1	1e-09	/	i	/	i
CC(C)COC(=O)Cn1cnc2ccc(Br)cc2c1=O	1.9e-09	-2%	i	-1.0%	i
C=CC[C@@H]1C=C[C@H](ON=C(C)C)[C@H](CO)O1	/	1%[11.4 µM]	/	-3.9%[11.5 µM]	/
COc1ccc(C2CC(=O)C3=C(C2)Nc2ccccc2N(C(C)=O)C3c2ccco2)cc1 (configuration not stated)	1.7e-08	7%	i	-3.3%	i
O=c1[nH]c(=O)n(Cc2ccccc2)c2nc(-c3ccco3)cc(C(F)(F)F)c12	7.3e-09	?	i	13%	i
CCOC(=O)c1c(C)oc(/N=C/c2ccccc2O)c1C#N	1e-09	-7%	i	1.5%	i
NS(=O)(=O)c1cccc2cccnc12	2.1e-09	2%	i	0.2%	i
Cc1ccc(NC2=NCC(=O)N2c2ccc3c(c2)OCCO3)c(C)c1	2.7e-08	-3%	i	1.4%	i
Cc1ccc2c(c1)C(c1ccccc1)N(C(=O)C(C)C)CC(=O)N2 (configuration not stated)	/	19%	/	-2.4%	/
CCC(=O)Nc1ccc(NC(=O)c2ccccc2Cl)nc1	2.5e-08	1%[11.4 µM]	i	-0.6%	i
CCOC(=O)C(C)n1cnc2c(nnn2-c2ccc(OC)cc2)c1=O (configuration not stated)	2e-09	-1%	i	0.1%	i
CC1CCCCN1C(=O)CSc1nc(C2CC2)nc2c1cnn2-c1ccccc1 (configuration not stated)	2.8e-09	?	i	-0.4%	i
NC(=O)c1c(-c2cccs2)csc1N	6.4e-09	/	i	2.8%	i
CC(OC(=O)c1cc[n+]([O-])cc1)C(=O)Nc1ccc(Cl)cn1 (configuration not stated)	6.6e-08	-7%	i	-1.0%	i
Cc1ccc2c(CN3C(=O)NC4(CCCCC4)C3=O)cc(=O)oc2c1C	3.2e-08	/	i	-0.5%	i
Cc1noc(C)c1-c1ccc2ncnc(NC3CC3)c2c1	2.2e-09	3%	i	0.9%	i
O=c1c(Cl)c(NCCO)ncn1-c1ccccc1	1e-09	-3%	i	0.7%	i
O=C(NCCC1=CCCCC1)C1CCN(c2nnc(-n3cccc3)s2)CC1	/	11%	/	-1.2%	/
CCC(C)NS(=O)(=O)c1ccc(NC(=O)c2c(-c3ccccc3)noc2C)cc1 (configuration not stated)	/	-4%	/	-1.6%	/
Cc1cc(C)nc(NS(=O)(=O)c2ccccc2)n1	3.3e-08	?	i	-0.8%	i
CN(C)Cc1ccccc1-c1nc(NCc2cccs2)c2ccccc2n1	2.9e-09	?	i	1.6%	i
COc1cc(-c2cc3nc(C)c(C)c(=O)n3[nH]2)cc(OC)c1OC	2e-08	3%	i	-1.2%	i
CCOC(=O)c1cccc(NC(=O)CSc2nnc(C)n2Cc2ccccc2)c1	3.1e-08	-1%	i	0.5%	i
Cc1ccc(Nc2nc3nonc3[nH]c2=O)cc1C	3.2e-08	8%	i	-0.7%	i
CCc1nc(C)c(C#N)c2cc(OC)c(OC)cc12	/	9%	/	0.4%	/
CCOc1ccc(-c2nnn(CC(=O)c3cc(OC)ccc3OC)n2)cc1	3.1e-08	10%	i	1.6%	i
Continuation.
SMILES	A647 autofl	TSHR agonist	A488 fluor	AID923	Resorufin autofl
Cc1cc(NC(=O)c2cccc(N3C(=O)CCC3=O)c2)no1	8.6e-09	-5%[11.4 µM]	i	0.8%	i
CN(C)c1nc(N)nc(/C(C#N)=C/C2CC3C=CC2C3)n1 (configuration not stated)	1.5e-08	-1%[11.4 µM]	i	11%	i
CCOC(=O)N1CCN(c2cc(C)nc3nc(C)nn23)CC1	/	-11%	/	1.7%	/
COc1ccc(C(=O)c2ccc(OC)c(N)c2)cc1N	/	9%	/	-1.0%	/
Cc1cc(C(F)F)n2nc(C(=O)Nc3ccccc3F)nc2n1	5.9e-09	-25%	i	-0.3%	i
Cc1ccc2[nH]cc(C(=O)CN3CCC4(CC3)OCCO4)c2c1	4.3e-09	8%	i	-0.2%	i
O=C(CN1CCOCC1)Nc1ccc(Oc2ccccc2)cc1	2.2e-08	4%	i	-0.6%	i
COC(=O)c1ccc(CN2CCN(Cc3ccc(C(=O)OC)o3)CC2)o1	1e-09	-1%	i	-1.9%	i
CCOC(=O)CSc1nnc(-c2cccc(Cl)c2)n1CC	1.9e-08	2%	i	-0.9%	i
CCN(C1CCCCC1)S(=O)(=O)c1ccc(C(=O)O)cc1	4e-09	-4%	i	0.9%	i
N#CCCNC(=O)CCN1CCOCC1	1e-09	19%	i	1.5%	i
Cc1ccc(NC2=CC(=O)CC(c3ccco3)C2)c(N)c1 (configuration not stated)	/	-7%	/	-0.8%	/
CCc1nnc(NC(=O)CCC(=O)N2CCN(CCc3ccccc3)CC2)s1	1e-09	9%	i	1.6%	i
COC(=O)c1ccc(CSc2nnc(N)s2)cc1	1e-09	4%	i	-1.3%	i
COCc1[nH]nc2c1C(c1ccc(F)cc1F)C(C#N)=C(N)O2 (configuration not stated)	1e-09	?	i	0.4%	i
CCOC(=O)C(NC(=O)CC)(Nc1ccccc1OC)C(F)(F)F (configuration not stated)	4.8e-09	-2%	i	-2.1%	i
CC1(C)CC(CCNC(=O)c2ccco2)CC(C)(C)N1	4.4e-09	/	i	-2.9%	i
CC1CCC2C(=O)OC(CO)CN2C1c1ccc(Br)cc1 (configuration not stated)	/	5%[11.4 µM]	/	-0.6%[11.5 µM]	/
CCCOc1ccc(C(C)(O)CN2CCOCC2)cc1 (configuration not stated)	1e-09	-1%	i	-1.3%	i
Nc1nc(SCC(=O)N2CCCC2)[nH]c(=O)c1-c1ccccc1	1e-09	4%	i	0.8%	i
N#Cc1c(-c2ccccc2)cc(C2CC2)nc1N	3e-08	?	i	-0.2%	i
NC(=O)c1ccc(Br)c(S(=O)(=O)N2CCCCC2)c1	/	3%[11.4 µM]	/	1.6%	/
Cc1ccc(-n2nc3c(c2NC(=O)c2ccc(S(=O)(=O)N4CCOCC4)cc2)CSC3)c(C)c1	1.8e-08	4%[11.4 µM]	i	1.8%	i
CCOC(=O)N1CCN(c2c(N3CCc4ccccc4C3)c(=O)c2=O)CC1	/	-2%	/	0.3%	/
COc1cccc(C(=O)CSc2nnc(COc3cccc4cccnc34)o2)c1	1e-09	16%	i	1.5%	i
